From PubChem BioAssay
GIV-Gai inh: GIV-Galpha-i interaction inhibition. Galpha-i3/FITC-GIV peptide fluorescence polarization, 90 min; hits give low values; scaled: aluminum fluoride 0%, vehicle 100%. 210,000 tested, 0.42% active. P08753. percent of control (FP), % (no concentration beside the values);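 active means replicate mean at 85% of control or lower, very high polarization wells dropped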;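 further: wells of about 15 µL received 100 nL stock; the first replicate is given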
Target sequence (P08753 whole entry, looked up): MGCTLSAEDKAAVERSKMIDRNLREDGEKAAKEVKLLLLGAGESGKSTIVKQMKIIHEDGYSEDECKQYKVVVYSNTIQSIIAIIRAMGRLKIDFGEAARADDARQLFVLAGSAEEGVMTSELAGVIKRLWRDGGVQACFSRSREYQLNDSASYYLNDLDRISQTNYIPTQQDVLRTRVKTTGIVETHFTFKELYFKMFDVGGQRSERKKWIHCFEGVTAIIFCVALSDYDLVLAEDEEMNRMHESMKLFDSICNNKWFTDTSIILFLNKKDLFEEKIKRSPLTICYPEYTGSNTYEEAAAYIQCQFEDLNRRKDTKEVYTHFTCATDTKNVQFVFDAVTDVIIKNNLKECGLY
HCMV UL50-53 inh: cytomegalovirus nuclear egress complex inhibition; HTRF UL50-UL53 interaction, normalized percent inhibition; inhibition, % (test concentration not listed); 190,000 tested, 0.15% active; AID 1918969;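 active means both replicates at 50% or more, plus weaker picks with an unusually low signal ratio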;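 further: stock transfer was 100 nL into about 20 µL; 0% = negative control wells and 100% = wells with untagged competitor protein; inactives centre near -12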
Sa growth 42C: inhibitors of Staphylococcus aureus growth at 42 °C; S. aureus RN4220 growth, OD600, 20 h; hits give low values; relative growth, % (no concentration beside the values); 170,000 tested, 0.53% active;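 active means growth at 42 °C up to 50% and 20 or more points under that at 30 °C, or under 10% at both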;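 further: 300 nL library stock went into each well; scaled to the means of positive and negative controls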
Sa growth 42C second temp: second read-out of Sa growth 42C, no call of its own (marks repeat the call); relative growth, %; measured here: growth at 30 °C;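 optical density after 20 h as mean of two plates; 100% = untreated growth and lower means inhibition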
* marks the source's active call; other numbers are inactive results; / = no result given; & = joins results of further samples. These rows are one share of the data; the hit share may differ from the screen's.

SMILES	GIV-Gai inh	HCMV UL50-53 inh	Sa growth 42C	Sa growth 42C second temp
CC1(C)CC(C)(O)P(C)(=O)O1 (configuration not stated)	/	8.5	79.5	98.3
COc1ccc(N2CCN(CCN)CC2)cc1	103.3	13.6	108.8	98.0
CN(C)CCC(=O)c1ccc(Br)cc1	103.9	/	26.4	52.3
N#Cc1cc2c(nc1SCC(=O)Nc1cccc(C(F)(F)F)c1)C1CCN2CC1	103.9	-2.7	60.0	17.2
Cc1ccccc1Cn1cccc(C(=O)Nc2nc3ccccc3s2)c1=O	102.1&100.5	/	103.0	89.5
O=C(Nc1ccc(OC(F)(F)F)cc1)c1cccn(Cc2ccccc2Cl)c1=O	108.1	/	114.5	103.3
O=[N+]([O-])c1ccc2nc(N3CCNCC3)ccc2c1	101.9	-160.8	/	/
Cc1nn(Cc2ccccc2Cl)c(C)c1C(=O)OCC(=O)Nc1sccc1C(N)=O	/	-40.2	86.8	70.8
O=c1c2ccccc2nc(SC(F)F)n1-c1ccccc1	/	0.0	93.9	85.2
NCCc1ccncc1	94.9	-30.6	92.1	88.2
FC(F)(F)c1cccc(C2NCCc3[nH]cnc32)c1 (configuration not stated)	98.2	-18.7	/	/
CN1CCC(OC(=O)C2c3ccccc3Oc3ccccc32)CC1	101.7	-5.8	89.2	91.4
Cc1nc2ccccc2c(C)c1CC(=O)N1CCN(CCOc2ccccc2)CC1	/	-9.6	83.8	97.5
O=C(Cn1ncc2c3ccccc3n(Cc3ccccc3F)c2c1=O)N1CCC2(CC1)OCCO2	102.5	4.9	105.4	95.9
CC1(C)CN=C(NCc2ccccc2Cl)S1	105.6	-4.5	116.5	88.5
CN1CCN(C(=O)Cc2ccccc2)CC1	103.1	-12.1	121.1	112.1
O=C(N1CC2CC(C1)c1cccc(=O)n1C2)C(F)(F)F (configuration not stated)	103.1	5.0	100.3	109.3
O=C(Nc1ccc(Cl)cc1C(=O)c1ccccc1)c1cc(Cl)cc(Cl)c1	102.8	16.5	97.0	104.4
c1cnc2c(c1)ncn2C1CCNCC1	104.2	/	90.8	94.5
CCOc1ccccc1NC1=NC(C)(C)CS1	/	-33.2	100.7	88.5
CCN(CC)P(=O)(c1nccn1C)N(CC)CC	/	3.6	109.1	93.1
COC(=O)CN1C(=O)C2(C(C(=O)OC)=C(N)Oc3c2c(=O)oc2ccccc32)c2ccccc21 (configuration not stated)	98.4	-22.5	94.7	92.4
Cc1cc(OC(=O)N(C)C)nc(-c2cccs2)n1	96.9	-6.6	95.2	78.7
COc1ccc(CNCC(=O)N2CCC3(CC2)OCCO3)cc1	99.7	-0.7	91.8	89.0
O=C1/C(=C\c2ccc(N3CCCC3)cc2)N2CCC1CC2	138.4	-17.3	94.9	73.1

Reprinted from the listing, 25 compounds:
SMILES	GIV-Gai inh	HCMV UL50-53 inh	Sa growth 42C	Sa growth 42C second temp
CC1(C)CC(C)(O)P(C)(=O)O1 (configuration not stated)	/	8.5	79.5	98.3
COc1ccc(N2CCN(CCN)CC2)cc1	103.3	13.6	108.8	98.0
CN(C)CCC(=O)c1ccc(Br)cc1	103.9	/	26.4	52.3
N#Cc1cc2c(nc1SCC(=O)Nc1cccc(C(F)(F)F)c1)C1CCN2CC1	103.9	-2.7	60.0	17.2
Cc1ccccc1Cn1cccc(C(=O)Nc2nc3ccccc3s2)c1=O	102.1&100.5	/	103.0	89.5
O=C(Nc1ccc(OC(F)(F)F)cc1)c1cccn(Cc2ccccc2Cl)c1=O	108.1	/	114.5	103.3
O=[N+]([O-])c1ccc2nc(N3CCNCC3)ccc2c1	101.9	-160.8	/	/
Cc1nn(Cc2ccccc2Cl)c(C)c1C(=O)OCC(=O)Nc1sccc1C(N)=O	/	-40.2	86.8	70.8
O=c1c2ccccc2nc(SC(F)F)n1-c1ccccc1	/	0.0	93.9	85.2
NCCc1ccncc1	94.9	-30.6	92.1	88.2
FC(F)(F)c1cccc(C2NCCc3[nH]cnc32)c1 (configuration not stated)	98.2	-18.7	/	/
CN1CCC(OC(=O)C2c3ccccc3Oc3ccccc32)CC1	101.7	-5.8	89.2	91.4
Cc1nc2ccccc2c(C)c1CC(=O)N1CCN(CCOc2ccccc2)CC1	/	-9.6	83.8	97.5
O=C(Cn1ncc2c3ccccc3n(Cc3ccccc3F)c2c1=O)N1CCC2(CC1)OCCO2	102.5	4.9	105.4	95.9
CC1(C)CN=C(NCc2ccccc2Cl)S1	105.6	-4.5	116.5	88.5
CN1CCN(C(=O)Cc2ccccc2)CC1	103.1	-12.1	121.1	112.1
O=C(N1CC2CC(C1)c1cccc(=O)n1C2)C(F)(F)F (configuration not stated)	103.1	5.0	100.3	109.3
O=C(Nc1ccc(Cl)cc1C(=O)c1ccccc1)c1cc(Cl)cc(Cl)c1	102.8	16.5	97.0	104.4
c1cnc2c(c1)ncn2C1CCNCC1	104.2	/	90.8	94.5
CCOc1ccccc1NC1=NC(C)(C)CS1	/	-33.2	100.7	88.5
CCN(CC)P(=O)(c1nccn1C)N(CC)CC	/	3.6	109.1	93.1
COC(=O)CN1C(=O)C2(C(C(=O)OC)=C(N)Oc3c2c(=O)oc2ccccc32)c2ccccc21 (configuration not stated)	98.4	-22.5	94.7	92.4
Cc1cc(OC(=O)N(C)C)nc(-c2cccs2)n1	96.9	-6.6	95.2	78.7
COc1ccc(CNCC(=O)N2CCC3(CC2)OCCO3)cc1	99.7	-0.7	91.8	89.0
O=C1/C(=C\c2ccc(N3CCCC3)cc2)N2CCC1CC2	138.4	-17.3	94.9	73.1

(listing goes on)
SMILES	GIV-Gai inh	HCMV UL50-53 inh	Sa growth 42C	Sa growth 42C second temp
O=c1cccc2n1CC1CC2CN(Cc2nnc(-c3ccccc3F)o2)C1 (configuration not stated)	103.3	-21.4	75.3	83.3
O=C1NC(=S)NC(=O)C1c1ccccc1	101.9	/	92.9	81.7
CCN1CCN(C(=O)Cc2c(C(=O)O)[nH]c3ccccc23)CC1	98.6	/	109.1	91.5
O=C(O)C12C3CCCC1C32c1ccccc1 (configuration not stated)	99.8	-6.4	99.2	98.1
CC(=O)OC12CCC(=O)C=C1CCC1C3CCC(=O)C3(C)CCC12 (configuration not stated)	100.0	-7.2	96.5	80.7
COCc1cc(OC(=O)N(C)C)nc(COc2ccc(Cl)cc2)n1	106.7	-22.3	107.6	87.1
Cc1ccc(Cn2nc(C(=O)Nc3ccccc3)cc2C)cc1	101.5	-3.9	123.8	94.5
Cc1c(Cc2ccc(F)cc2)c(=O)oc2cc(OC(=O)N(C)C)ccc12	98.8	-0.6	104.6	97.6
CCOC(=O)/C=C(\O)C(F)(F)F (tested in a mixture with another compound)	95.6	-8.9	/	/
O=S1(=O)N(Cc2ccccc2)CCCN1Cc1ccc(F)cc1Cl	100.3	/	85.5	102.3
Cc1cc(OC(=O)c2cccs2)c2c3c(c(=O)oc2c1)CCC3	106.1	/	113.3	87.7
OC(Cc1ccccc1)(c1ccccc1)C1CN2CCC1CC2 (configuration not stated)	97.4	/	104.1	90.2
O=C(Cn1ncc2ccccc21)N1CCC2(CC1)OCCO2	105.0	/	109.5	90.2
COc1ccc(C2N3CC(C)(C)CN23)cc1 (configuration not stated)	99.5	/	91.8	82.4
O=C(CNC(=O)c1ccccc1)OCC1CCCN2CCCCC12 (configuration not stated)	/	0.5	95.5	100.6
CC(=O)OC1CCC2(C#N)[C@H]3CCC4(C)C(C5=CC(=O)OC5)CCC4(O)[C@@H]3CCC2(O)C1 (some centres not stated)	98.3	-16.0	89.3	82.8
C=CCOC(=O)c1cc(-c2ccc(C=C3C(=O)NC(=O)NC3=O)o2)ccc1Cl	106.2	0.8	/	/
COC(=O)C1=C(N)OC2=C(C(=O)CCC2)C12C(=O)Nc1ccccc12 (configuration not stated)	101.4	-13.6	108.7	109.8
O=C(NCCN1CCOCC1)c1cc2cccnc2n(Cc2ccccc2)c1=O	107.9	-12.8	/	/
COc1ccc2nc(NC(=O)CN3CC4CC(C3)c3cccc(=O)n3C4)sc2c1 (configuration not stated)	109.7	-2.7	101.6	85.8
C=CCNc1nc(Cl)nc(N2CC3CC(C2)c2cccc(=O)n2C3)n1 (configuration not stated)	99.6	7.4	/	/
COc1ccc(C2c3cccn3-c3ccccc3CN2C(=O)Nc2cc(C)cc(C)c2)cc1 (configuration not stated)	101.5	0.4	/	/
COc1ccc(N2CCN(C(=O)CN3CC=C(c4ccccc4)CC3)CC2)cc1	/	-11.6	108.1	97.8
CCN(CC)C(=O)c1ccc(NC(=O)COc2ccc(-c3nn(C)c(=O)c4ccccc34)cc2)cc1	101.8	-6.0	101.3	94.6
CCc1ccc(NC(=O)N2Cc3ccccc3-n3cccc3C23CCN(C)CC3)cc1	102.2	-4.5	/	/

Entries above that contain an aryl thioether with sulfur outside any ring:
SMILES	GIV-Gai inh	HCMV UL50-53 inh	Sa growth 42C	Sa growth 42C second temp
N#Cc1cc2c(nc1SCC(=O)Nc1cccc(C(F)(F)F)c1)C1CCN2CC1	103.9	-2.7	60.0	17.2
O=c1c2ccccc2nc(SC(F)F)n1-c1ccccc1	/	0.0	93.9	85.2

Additional entries:
SMILES	GIV-Gai inh	HCMV UL50-53 inh	Sa growth 42C	Sa growth 42C second temp
C=CCn1cc(C=C2C(=O)NC(=O)NC2=O)c2ccccc21	118.5	-17.1	97.6	99.3
CC(C)c1ccc(-n2c(=O)[nH]c3ccccc3c2=O)cc1	/	-30.4	89.0	84.2
Cc1cc(C(=O)Nc2ccccc2)nn1C(C)(C)C	96.7	1.3	99.0	108.6
CCOC(=O)c1c(C)n(Cc2ccccc2)c2c1cc(O)c1c2c(-c2ccccc2)nn1-c1ccccc1	100.4	-20.0	/	/
CC(N)Cc1cn(Cc2ccccc2)c2ccccc12 (configuration not stated)	102.3	1.4	108.4	78.2
Cc1nn(C)c(C)c1P(=S)(N(C)C)N(C)C	/	-13.3	82.0	81.7
CCOC(=O)C1=C(N)Oc2n[nH]c(C)c2C12C(=O)N1c3c(cc(C)cc32)C(C)CC1(C)C (configuration not stated)	105.9	-18.4	104.4	99.9
CCn1cc(CC(C)N)c2ccccc21 (configuration not stated)	103.2	-20.8	93.3	97.5
CN(C)C(=Nc1ccc(I)cc1)P(=O)(N(C)C)N(C)C	/	13.0	111.5	97.2
Cc1c(P(=S)(N2CCOCC2)N2CCOCC2)cc(C#N)n1C	/	-2.1	60.6	89.7
OC1C2CCCC1C(N1CCCCC1)CC2 (configuration not stated)	102.4	-32.6	92.0	88.4
CC(N)Cc1ccco1 (configuration not stated)	102.0	-7.7	98.2	95.1
CC(=O)c1cccc(NC(=O)c2cccn(Cc3cccc(C)c3)c2=O)c1	100.3	/	139.7	87.4
Cc1ccccc1-n1c(CSc2ncccn2)nc2ccccc2c1=O	98.3	-1.4	107.4	84.6
Cc1ccc2onc(OC(=O)N(C)C)c2c1	109.7	8.6	105.9	65.7
Oc1ccc(Cl)cc1	/	-5.9	93.6	95.8
CC#CCNC1CCCCC1	104.3	-0.3	93.5	90.9
Cc1ccc2c(c1)C1CN(C)CCC1N2C(=O)Cc1cccs1 (configuration not stated)	/	-23.7	132.0	75.7
C=CCOC(=O)C1C2NC(=S)N(CCCOC)C1(C)Oc1c(OCC)cccc12 (configuration not stated)	98.8	9.2	104.3	102.1
Cc1c(C(N)=O)ncn1Cc1ccc(Cl)cc1	103.5	-1.8	114.0	91.3
Cc1nc(-c2ccccc2)nc(OC(=O)N(C)C)c1Oc1cccc(C(F)(F)F)c1	101.6	/	106.0	87.9
Cc1ccc(-n2c(=O)[nH]c3ccc(Br)cc3c2=O)cc1	108.8	-56.4	96.8	80.7
C[C@@H]1CC[C@H]2[C@@H](C)C(=O)O[C@@H]3O[C@@]4(C)CC[C@@H]1[C@]32OO4	103.4	-31.2&2.0&-9.5	82.8	77.2
COC(=O)C1(C#N)C(c2ccc(C)cc2C)C(C(=O)c2ccccc2)N2c3ccccc3C=CC21 (configuration not stated)	/	-27.3	87.1	94.5
CC1N=C(c2ccccc2)c2cc(Br)ccc2NC1=O (configuration not stated)	97.6	/	85.2	75.5
COc1ccc(C=C(C#N)C#N)c2ccccc12	102.7	-1.2	117.5	116.0
Cc1cccc2sc(NC(=O)c3cccn(Cc4ccccc4)c3=O)nc12	102.4	/	148.4	91.2
CC12CCCCC1=NC(c1ccccc1O)N2O (configuration not stated)	/	-5.4	86.2	82.6
Cc1ccc2c(c1)C1CN(C)CCC1N2C(=O)/C=C/c1ccccc1 (configuration not stated)	/	-41.7	113.0	90.5
